# Cruzain noTriton – qHTS Assay for Promiscuous and Specific Inhibitors of Cruzain (without detergent) | Cruzipain (Trypanosoma cruzi), P25779 | purified cruzain, Z-FR-AMC fluorescence, no detergent | Potency, µM, for the others: max response, negative = inhibition, usual class: inhibitors | hit rate 2.3% among 200,000; active = well fitted curve in the direction sought with a large enough effect; inconclusive = small, poorly fitted or top-dose-only effect, or another doubt; inactive = no such curve, though single readings can be large; an effect the other way counts as inactive or inconclusive;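 also: plate controls were enzyme without inhibitor for no effect and buffer without enzyme for full effect; nearly all actives have a fitted effect of over 40% in size; top concentration of the series not given in the record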
# Target sequence (P25779 123-467 limits assumed): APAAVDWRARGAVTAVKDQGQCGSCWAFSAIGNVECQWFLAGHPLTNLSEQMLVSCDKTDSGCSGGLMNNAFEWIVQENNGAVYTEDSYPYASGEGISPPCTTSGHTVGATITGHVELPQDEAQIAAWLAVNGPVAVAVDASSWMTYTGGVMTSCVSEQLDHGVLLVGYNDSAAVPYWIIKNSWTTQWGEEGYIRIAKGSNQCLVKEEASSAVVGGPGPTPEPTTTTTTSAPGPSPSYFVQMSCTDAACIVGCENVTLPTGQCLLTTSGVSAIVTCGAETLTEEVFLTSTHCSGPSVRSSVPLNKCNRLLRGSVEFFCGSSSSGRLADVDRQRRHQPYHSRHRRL
#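 Detergent-free condition (0.00005% Triton X-100) in acetate buffer pH 5.5 with DTT. 1.5 nM enzyme and compound were pre-mixed 15 min, then 2 uM Z-FR-AMC substrate added; reaction progress from fluorescence change between first and third reads (60 s).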
# StopGo reporter – High Throughput Screening for Foot and Mouth Disease Virus Antivirals; human cells with a luciferase reporter of 2A StopGo recoding; control for the full effect not named in the record; Potency, µM (titrated, usually from 57.9 µM), inactives show top-dose signal change, negative = less light; hit rate 1.2% among 410,000; active = well fitted falling curve with a large enough effect; inconclusive = small, poorly fitted or top-dose-only effect; inactive = no such curve, though single readings can be large or run the other way; tested in HEK293T cells; also: % is scaled to controls: 0 for no effect and ±100 for the full control effect; nearly all actives have a fitted effect of over 45% in size; luciferase light after 4 h
# RE007 growth inh – qHTS Assay for Inhibitors of the HIV-1 protein Vpr | hit rate 0.21% among 360,000 | S. pombe RE007 Vpr strain, BacTiter-Glo ATP luminescence, 24 h; control for the full effect not named in the record | Potency, µM (series often up to 92.2 µM), inactives show at the highest dose activity change, negative = less growth; active = well fitted falling curve with a large enough effect; inconclusive = small, poorly fitted or top-dose-only effect; inactive = no such curve, though single readings can be large or run the other way;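 also: % is scaled to controls: 0 for no effect and ±100 for the full control effect; nearly all actives have a fitted effect of over 50% in size; the assay follows cell death caused by Vpr and the record does not say whether a fall means rescue or toxicity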
#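 Fission yeast RE007 carrying one integrated HIV-1 vpr copy, seeded at OD 0.01 in PMG+AL medium with 23 nL pinned compound. Grown 24 h at 30 degrees; viability read by BacTiter-Glo luminescence after 5 min.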
# Cruzain inh Det – qHTS Assay for Promiscuous and Specific Inhibitors of Cruzain (with detergent) | Cruzipain (Trypanosoma cruzi), P25779 | purified cruzain, Z-FR-AMC fluorescence, 0.01% Triton | Potency, µM, inactives show max response, negative = inhibition, most hits filed as inhibitors | hit rate 0.43% among 200,000 | AID 1478, 2009; active = well fitted curve in the direction sought with a large enough effect; inconclusive = small, poorly fitted or top-dose-only effect, or another doubt; inactive = no such curve, though single readings can be large; an effect the other way counts as inactive or inconclusive;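 also: plate controls were neutral wells for no effect and buffer without enzyme for full effect; nearly all actives have a fitted effect of over 40% in size; top concentration of the series not given in the record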
#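 In this qHTS format, compounds are incubated with 1.5 nM cruzain for 15 min at room temperature before 2 uM Z-FR-AMC is added. Release of AMC is followed at 360/450 nm, and progress is taken as the 60 s fluorescence difference.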
# MARV entry inh – qHTS for inhibitors of binding or entry into cells for Marburg Virus | Marburg virus pseudotyped entry inhibition, cell reporter; control for the full effect not named in the record; about a third of the inactives were read at about 46 µM | Potency, µM (doses to about 37.8 µM), without a hit: at the top dose activity change, negative = inhibition, actives largely listed as inhibitors | hit rate 1.8% among 300,000; active = well fitted inhibition curve with a large enough effect; inconclusive = small, poorly fitted or top-dose-only effect, or effect the other way; inactive = flat fitted curve, though single readings scatter; tested in HEK293 cells; about a fifth of its hits are not listed in these tables; also: % is scaled to controls: 0 for no effect and ±100 for the full control effect; luciferase read-out
# NS1 function inh – qHTS Assay for Inhibitors of Influenza NS1 Protein Function; Potency, µM (titrated, usually from 46.1 µM), inactives show at the top dose activity, positive = more growth; hit rate 0.4% among 270,000; AID 2326, 2010; S. cerevisiae slowed by influenza A NS1, growth recovery by OD600; also: actives are rising curves; nearly all actives have a fitted effect of over 50% in size
#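 A cell-based growth assay was used: compounds that relieve NS1-induced slow growth of budding yeast raise OD600. Assay medium was yeast nitrogen base with ammonium sulphate and -URA supplement, pH 6.0, with 2% galactose.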
# Lassa entry inh – qHTS for Inhibitors of binding or entry into cells for Lassa Virus; Lassa virus pseudotype entry inhibition, cell reporter; control for the full effect not named in the record; hit rate 1.2% among 300,000; Potency, µM (series often up to 37.9 µM), for inactives: at the highest dose activity change, negative = inhibition, actives largely listed as inhibitors; active means well fitted inhibition curve with a large enough effect; inconclusive means small, poorly fitted or top-dose-only effect, or effect the other way; inactive means flat fitted curve, though single readings scatter; tested in HEK293 cells; also: % is scaled to controls: 0 for no effect and ±100 for the full control effect; nearly all actives have a fitted effect of over 50% in size; luciferase read-out
# SARS PLpro yeast – qHTS of Yeast-based Assay for SARS-CoV PLP; Potency, µM (doses to about 32.9 µM), inactives show at the top dose activity, positive = growth rescue; hit rate 0.19% among 330,000; S. cerevisiae expressing SARS-CoV PLpro, growth rescue; control for the full effect not named in the record; also: 0% is about no effect; nearly all actives have a fitted effect of over 55% in size; growth read by luminescence after 48 h
# The depositor's hits bear a star; ? = inconclusive; nt = no result given; & = joins results of further samples; [ ] = another dose, or the depositor's remark. Unless noted, calls follow the shape of the dose curve; as a rule, active means well fitted rising curve with a large enough effect; inconclusive means small, poorly fitted or top-dose-only effect; inactive means no such curve, though single readings can be large or run the other way. Potency is read from the fitted curve at half-maximal effect.
structure	NS1 function inh	Lassa entry inh	SARS PLpro yeast	MARV entry inh	RE007 growth inh	Cruzain noTriton	Cruzain inh Det	StopGo reporter
O=C(c1cccc([N+](=O)[O-])c1)N1CCCC(C(=O)N2CCc3ccccc3C2)C1 (stereo not given)	5%	nt	27%	nt	-14%	nt	nt	-9%
N#CC1=C(N)Oc2ccc3ccc(O)cc3c2C1c1cccnc1 (stereo not given)	-1%	7%	1%	-3%	7%	-1%	1.5%	nt
Nc1cc(C(=O)Nc2ccc(Cl)cc2)ccc1N1CC2CC(C1)c1cccc(=O)n1C2 (stereo not given)	9%	nt	1%	nt	-4%	nt	nt	-22%
COC(=O)c1ccc(NC(=O)C(=O)NCCc2csc(-c3ccc(F)cc3)n2)cc1	nt	27%[46.1 µM]	nt	nt	nt	?	2.0%	2%
Cc1ccc2oc(=S)n(C)c2c1	-5%	6%	15%	17%	0%	-4%	-1.7%	-2%
COc1cc2c(cc1NC(=O)COC(=O)C(CCSC)NC(=O)c1ccccc1Cl)oc1ccccc12 (stereo not given)	-2%	4%	13%	-7%	4%	25µM*	?	27%
O=C(C[n+]1cc[nH]c1)c1ccc(Cl)cc1	5%	8%	5%	3%	-19%	nt	nt	-11%
Cc1ccc(C(=O)N2CCC(C)CC2)cc1C	6%	-3%	-22%	?	8%	-3%	-4.1%	nt
Nc1ccc(C(O)(C(F)(F)F)C(F)(F)F)cc1	6%	8%	1%	?	-4%	0%	-1.9%	18%
CC(=O)c1c(C)n(-c2cccc(Cl)c2)c2ccc(OC(=O)c3ccccc3)cc12	nt	2%[46.1 µM]	nt	nt	nt	-12%	-0.6%	-28%
O=c1ccnc(SCc2ccccc2Cl)[nH]1	-8%	?	-4%	?	13%	-5%	5.0%	13%
CC1(c2nnc(-c3ccc(F)cc3)o2)CC(c2ccc(F)cc2)=NO1 (stereo not given)	-45%	nt	-4%	nt	-6%	nt	nt	-17%
O=S(=O)(NCc1ccc2c(c1)OCO2)c1ccc2c(c1)oc1ccccc12	-14%	12%	2%	6%	-1%	-8%	-2.7%	nt
COc1ccc(NC(=O)CN(C)C(=O)c2ccc3ccccc3n2)cc1	nt	-11%	1%	1%	-5%	nt	nt	14%
CCC1CCCCN1Cc1c(O)ccc2c(=O)c(Oc3ccccc3Cl)c(C(F)(F)F)oc12 (stereo not given)	nt	13%[46.1 µM]	nt	-2%[46.1 µM]	nt	2%	-18%	-15%
CCCOc1ccc(-c2nc(C#N)c(NCC3CCCO3)o2)cc1 (stereo not given)	-114%	-16%	-8%	3%	11%	?	-15%	-5%

# Part of the list above, with values under each structure.
# Every second line gives: NS1 function inh | Lassa entry inh | SARS PLpro yeast | MARV entry inh | RE007 growth inh | Cruzain noTriton | Cruzain inh Det | StopGo reporter
N#CC1=C(N)Oc2ccc3ccc(O)cc3c2C1c1cccnc1 (stereo not given)
 : -1% | 7% | 1% | -3% | 7% | -1% | 1.5% | nt
Nc1cc(C(=O)Nc2ccc(Cl)cc2)ccc1N1CC2CC(C1)c1cccc(=O)n1C2 (stereo not given)
 : 9% | nt | 1% | nt | -4% | nt | nt | -22%

# Remaining list, next part
structure	NS1 function inh	Lassa entry inh	SARS PLpro yeast	MARV entry inh	RE007 growth inh	Cruzain noTriton	Cruzain inh Det	StopGo reporter
CCN1CCN(c2nc(Nc3ccccc3)nc(N)c2[N+](=O)[O-])CC1	-5%	-3%	6%	4%	14%	8%	-4.1%	-12%
Cc1ccc(S(=O)(=O)C(CNC(=O)COc2ccc(Cl)cc2)c2ccco2)cc1 (stereo not given)	nt	-29%[46.1 µM]	nt	nt	nt	-11%	-5.9%	-19%
COc1cccc(CNC(=O)[C@@H](C)N2C(=O)N3CCc4c([nH]c5ccc(OC)cc45)C3(C)C2=O)c1 (stereo not given in full)	10%	nt	-2%	nt	6%	nt	nt	?
COc1ccccc1-n1cnnc1SCC(=O)N1CCN(S(=O)(=O)c2ccccc2)CC1	4%	-3%	1%	5%&5%	-15%	0%	0.1%	-13%
CCN(CC)CCN(C(=O)c1ccc2c(c1)CCCC2)c1nc2c(C)cccc2s1	-49%	?	-3%	?	-11%	nt	nt	-20%
C#CC1(O)CCC2C3CCC4=C/C(=N/OCC(=O)NCC(=O)NC(C(=O)O)C(C)C)CC[C@]4(C)C3CC[C@@]21C (stereo not given in full)	0%	nt	1%	nt	1%	nt	nt	-12%
CC(=O)N1CCc2cc(Br)cc(S(=O)(=O)N3CCC(C(=O)Nc4cccc(C)c4C)CC3)c21	nt	16%[46.1 µM]	nt	4%[46.1 µM]	nt	20%	-4.9%	0%
COc1ccc(/C=C(\NC(=O)c2ccc(OC)cc2)C(=O)N2CCCCC2)cc1	14%	nt	-2%	nt	2%	nt	nt	0%
Cc1cc(C)cc(NC(=O)CCn2cnc3cc(C)c(C)cc32)c1	11%	-2%	-3%	?	-2%	nt	nt	-9%
Cc1ccc(OCC(=O)NC(C)c2ccccc2)cc1C (stereo not given)	0%	nt	0%	nt	-8%	nt	nt	-4%
COc1ccc(CCN2CC(C(=O)N(C)Cc3cccnc3)CC2=O)cc1OC (stereo not given)	nt	-1%	2%	?	-2%	nt	nt	-19%
CC(c1ccccc1)n1cc(C(=O)NCC2CCCO2)nn1 (stereo not given)	7%	21%	-9%	-17%	8%	-8%	2.4%	2%
CCN(CC)C(=O)CSc1nnc([C@H](Cc2c[nH]c3ccccc23)NC(=O)OC(C)(C)C)o1	-1%	?	-6%	5%	11%	?	-2.9%	1%
Cc1cccc(OCC(=O)Nc2ccc(N3CCN(C(=O)c4ccco4)CC3)cc2)c1C	-3%	-11%[46.1 µM]	-1%	?	-13%	nt	nt	-17%
CCCN1C(=O)c2ccc(C(=O)NC3=NCCS3)cc2C1=O	-24%	9%	-12%	6%	6%	-3%	-1.6%	30%[activator]
O=C(c1cccc(S(=O)(=O)Nc2cccc(C(F)(F)F)c2)c1)N1CCOCC1	-1%	19%	0%	-1%[46.1 µM]	1%	nt	nt	9%
Cc1cc(C)n(C(=O)CSc2nc3ccccc3o2)n1	6%	14%	12%	3%&3%	7%	-17%	3.5%	-4%
O=C(c1cccn2c(=O)c3cc(Br)ccc3nc12)N1CCN(c2ccccn2)CC1	-17%	1%	0%	-5%	-5%	22%	-5.8%	0%
Cc1ccc(CNC(=O)CCS(=O)(=O)c2ccc(Cl)cc2)cc1	3%	14%	19%	?	4%	11%	-1.6%	-11%
COC(=O)c1[nH]c2ccc(Br)cc2c1NC(=O)C(C)N1CCN(C2CCCCC2)CC1 (stereo not given)	-14%	?	8%	?	13%	-8%	-10%	?
CC1=CC(C)[C@H](/C=N/n2c(=O)[nH]c3c([nH]c4ccc(Br)cc43)c2=O)C(C)C1 (stereo not given in full)	nt	?	-3%	-25%	2%	nt	nt	-28%
CN1CCN(CCNC(=O)c2cnn(-c3cccc(Cl)c3)c2C2CCN(C(=O)OC(C)(C)C)CC2)CC1	nt	-1%[46.1 µM]	nt	nt	nt	0%	0.3%	-16%
C=C(C)CN(CC)C(=O)CN1C(=O)NC2(CCc3ccccc32)C1=O (stereo not given)	8%	12%[46.1 µM]	1%	-3%[46.1 µM]	2%	nt	nt	49%[activator]
CCN1C(=O)CC(N2CCN(c3ccc(OC)cc3)CC2)C1=O (stereo not given)	3%	10%	9%	10%	-15%	6%	0.7%	-11%

# Record cards, as listed above. Values in the order: NS1 function inh | Lassa entry inh | SARS PLpro yeast | MARV entry inh | RE007 growth inh | Cruzain noTriton | Cruzain inh Det | StopGo reporter
# Profile of Cc1ccc(OCC(=O)NC(C)c2ccccc2)cc1C (stereo not given) : 0% | nt | 0% | nt | -8% | nt | nt | -4%
# Profile of COC(=O)c1[nH]c2ccc(Br)cc2c1NC(=O)C(C)N1CCN(C2CCCCC2)CC1 (stereo not given) : -14% | ? | 8% | ? | 13% | -8% | -10% | ?
# Profile of O=C(c1cccc(S(=O)(=O)Nc2cccc(C(F)(F)F)c2)c1)N1CCOCC1 : -1% | 19% | 0% | -1%[46.1 µM] | 1% | nt | nt | 9%
# Profile of CC1(c2nnc(-c3ccc(F)cc3)o2)CC(c2ccc(F)cc2)=NO1 (stereo not given) : -45% | nt | -4% | nt | -6% | nt | nt | -17%

# Next structures.
structure	NS1 function inh	Lassa entry inh	SARS PLpro yeast	MARV entry inh	RE007 growth inh	Cruzain noTriton	Cruzain inh Det	StopGo reporter
Cc1cccc(NC(=O)c2cc(-c3ccc(C)s3)nc3ccccc23)n1	20%	?	-7%	?	-4%	20µM*	-13%	?
CCOC(=O)C(O)(CC(=O)c1ccc(OC)cc1)C(F)(F)F (stereo not given)	11%	-8%	?	-1%	-8%	12%	-2.0%	7%
Cc1nnc2c3cnn(-c4ccc(Cl)cc4)c3ncn12	-4%	nt	1%	1%	nt	6%	2.5%	nt
CC(C)CNC(=O)Nc1ccccc1F	-1%	nt	0%	nt	-15%	nt	nt	23%
CC1=C(C#N)C(c2ccccc2O)C(C#N)=C(C)N1	nt	18%[46.1 µM]	-4%	0%[46.1 µM]	-22%	nt	nt	-11%
COC(=O)c1ccc(NC(=O)CC2C(=O)N(c3cccc(OC)c3)C(=O)N2Cc2cccs2)cc1 (stereo not given)	nt	?	nt	nt	nt	-2%	-6.5%	-6%
Cn1c(=O)n(C)c2cc(NC(=O)c3ccc(F)cc3)ccc21	3%	nt	6%	nt	4%	nt	nt	0%
N#Cc1c(C(F)(F)F)cc(-c2cccs2)nc1SCC(=O)Nc1cccc(Cl)c1	nt	4%[46.1 µM]	nt	20%[46.1 µM]	nt	-11%	-2.7%	1%
Cn1ccnc1SCC(=O)Nc1cccc(C(F)(F)F)c1	-9%	15%	1%	25%	0%	1%	3.4%	nt
O=C(C1CCCCN1S(=O)(=O)c1ccccc1[N+](=O)[O-])N1CCOCC1 (stereo not given)	nt	9%	1%	?	3%	nt	nt	-3%
